Mtb bLac sens – beta-lactam sensitization of Mtb H37Rv, H37Rv; M. tuberculosis H37Rv growth with meropenem, percent inhibition; hits of this screen are not shown here; inhibition, % at 25 µM; hit rate 0.27% among 330,000; AID 434955, 2010;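 active means about 74% or more and at least 40 points above the plate without the antibiotic, then above 30% in a dose series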;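 further: growth measured after seven days incubation then overnight dye step; 0% = bacteria only wells and 100% = bacteria with antibiotic; twin plates without the antibiotic show which effects depend on it; some results filed as inactive read as strong as hits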
Mtb growth – M. tuberculosis H37Rv growth inhibitors, H37Rv strain (AID 1626) | hit rate 0.95% among 220,000 | M. tuberculosis H37Rv growth inhibition; higher % means a stronger effect | inhibition, % at 10 µM, or IC50 in µM where a hit was titrated;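 active means confirmed in a dose series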;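 further: bacteria incubated seven days before Alamar blue readout; 0% = bacteria only wells and 100% = bacteria with antibiotic wells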
Arbovirus inh – antivirals against arbovirus infection, primary screen, cell-based, full library, 10K replicate subset; inhibition, % at 10 µM; hit rate 0.37% among 200,000; arbovirus infection cell-based antiviral screen;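 active means inhibition from about 30%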;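 further: bluetongue infection of BSR cells; cell survival read as ATP light after 72 h; 0% = infected wells without compound and 100% = uninfected wells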
RecA intein inh – Mtb RecA intein splicing inhibitors, primary screen, biochemical, fluorescence, HTS; hit rate 0.75% among 290,000; cell-free RecA intein splicing; Protein RecA (Mycobacterium tuberculosis (strain ATCC 25618 / H37Rv)), P9WHJ3; AID 2221, 2009; inhibition, %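 (about 9 µM by stock and volumes)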; in the data active means inhibition above about 30%;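 further: 0% = vehicle wells and 100% = reference inhibitor control wells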
Target sequence (P9WHJ3 whole entry, looked up): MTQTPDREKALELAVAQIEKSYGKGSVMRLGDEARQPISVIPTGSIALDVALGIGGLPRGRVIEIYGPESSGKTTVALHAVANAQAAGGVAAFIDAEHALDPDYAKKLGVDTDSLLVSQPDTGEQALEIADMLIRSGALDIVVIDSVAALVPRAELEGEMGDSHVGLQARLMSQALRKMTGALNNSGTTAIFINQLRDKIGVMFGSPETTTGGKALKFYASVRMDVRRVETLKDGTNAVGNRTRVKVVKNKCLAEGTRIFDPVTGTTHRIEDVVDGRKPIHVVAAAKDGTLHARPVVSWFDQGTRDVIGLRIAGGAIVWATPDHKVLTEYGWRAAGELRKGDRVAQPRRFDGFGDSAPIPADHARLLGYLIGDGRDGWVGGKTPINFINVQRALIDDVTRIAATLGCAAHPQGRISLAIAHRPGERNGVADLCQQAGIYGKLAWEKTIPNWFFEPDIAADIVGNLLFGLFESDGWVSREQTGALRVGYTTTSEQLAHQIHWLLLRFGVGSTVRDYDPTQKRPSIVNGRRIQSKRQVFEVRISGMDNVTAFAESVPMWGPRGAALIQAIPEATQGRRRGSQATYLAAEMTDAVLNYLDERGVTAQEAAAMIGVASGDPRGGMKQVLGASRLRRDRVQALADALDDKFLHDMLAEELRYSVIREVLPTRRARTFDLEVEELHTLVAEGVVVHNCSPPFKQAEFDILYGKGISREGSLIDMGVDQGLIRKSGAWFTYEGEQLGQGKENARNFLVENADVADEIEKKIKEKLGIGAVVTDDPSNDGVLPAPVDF
YopH PTP inh – YopH tyrosine phosphatase inhibitors, primary screen, biochemical, fluorescence Ex485/Em525; inhibition, %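 (about 10 µM by stock and volumes)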; hit rate 0.16% among 140,000;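 active means inhibition of 50% or more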;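 further: controls were vehicle for no effect and minimum signal wells for full effect; inactives centre near -20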
Arbovirus inh repeat – second read-out of Arbovirus inh, no call of its own (marks repeat the call); inhibition, %; measured here: 10K subset replicate screen; many hits read low in the repeat;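 first of two repeat runs on a subset; 0% = infected and 100% = uninfected wells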
Numbers without * were called inactive; . = no result given. These rows are one share of the data, so the mix of outcomes need not match the whole.

SMILES	Mtb bLac sens	Mtb growth	Arbovirus inh	RecA intein inh	YopH PTP inh	others
Cc1ccc2c(c1)N(CCCC(=O)NCC1COc3ccccc3O1)C(=O)CO2 (stereo unspecified)	-3	1%	3	2.6	-9
CC(C)c1ccc(/C=C2\CC/C(=C\C=N\N(C)C)C2=O)cc1	-3	.	5	.	4
COc1ccc(-c2cnc(N)nc2-c2ccc(OCc3ccccc3)cc2O)cc1	-8	-13%	.	-0.9	.
O=C(NCCc1ccc(Cl)cc1)c1ccc2c(c1)OCO2	6	.	.	-2.3	.
CCOC(=O)C1CCCN(Cc2cc(Br)ccc2OC)C1 (stereo unspecified)	5	-4%	2	.	-13
CC(C)(C)n1nnnc1C(c1cccs1)N(Cc1cccnc1)CC1CCCO1 (stereo unspecified)	-7	-5%	0	3.0	-57
Cc1ccc(C)c(NC(=O)CCC(=O)OC(C(=O)c2ccccc2)c2ccccc2)c1 (stereo unspecified)	-10	2%	-5	1.7	-8
CCOC(=O)C1CCN(C(=O)c2ccc3c(=O)n4nc(Nc5cc(C)ccc5C)sc4nc3c2)CC1	47	.	.	-6.1	.
Cn1c(=O)cc(SCC(=O)N2CCN(Cc3ccc4c(c3)OCO4)CC2)c2ccccc21	-4	-8%	-11	4.4	-5
CC(=O)c1cccc(NC(=O)Oc2ccccc2)c1	-3	-2%	1	.	-48
CC(=O)c1cccc(NC(=O)C2CCCN(S(=O)(=O)c3ccc(F)cc3)C2)c1 (stereo unspecified)	-15	-2%	4	-1.7	1
Cn1c(-c2ccccc2)cnc1NCc1cc(Cl)ccc1O	-2	.	.	1.7	.
Cc1cc(OC(C)C(=O)NCc2ccncc2)c2c3c(c(=O)oc2c1)CCC3 (stereo unspecified)	0	.	.	-0.3	.
Cc1[nH]n(-c2ccccc2)c(=O)c1C=Nc1ccc2[nH]c(=O)[nH]c2c1	9	4%	-2	-2.5	-24
CC(C)S(=O)(=O)c1csc(C(=O)NNC(=O)Nc2ccccc2)c1Cl	-11	.	.	7.2	.
COc1cccc(C(=O)Nc2nc(-c3ccccc3)c(-c3ccccc3)o2)c1	98	<0.2µM*	-18	17	-7
COCCN(C(=O)CNC(=O)c1cccs1)C(C(=O)NC1CCCCC1)c1ccco1 (stereo unspecified)	-2	0%	2	.	-1
Cc1cc(NS(=O)(=O)c2ccc(NC(=O)CCCC(=O)O)cc2)nc(C)n1	-17	-8%	-4	-1.8	-12	Arbovirus inh repeat=0
COc1ccc(C(NC(C)=O)c2ccc3cccnc3c2O)c(OC)c1 (stereo unspecified)	8	-6%	-32	4.1	.
CC(C)[C@H](NC(=O)c1ccco1)C(=O)OCC(=O)Nc1cccc(F)c1	-9	4%	9	2.6	.
CCOc1ccc(CNCCCSc2ncccn2)cc1	-2	.	.	-0.1	.
S=C(NCCc1ccccc1)N1CCN(Cc2ccc(Cl)c(Cl)c2)CC1	-3	1%	5	2.4	-4
O=C(OCc1nc2scc(-c3ccccc3)c2c(=O)[nH]1)c1cc(Cl)ccc1[N+](=O)[O-]	-4	6%	8	3.9	-18
COc1ccccc1CN(Cc1cc2c(C)ccc(C)c2[nH]c1=O)Cc1nnnn1Cc1ccco1	5	5%	-17	4.4	-28
CCCC1(C(=O)O)NC(c2ccccc2O)C2C(=O)N(c3cccc(Cl)c3)C(=O)C21 (stereo unspecified)	-2	-10%	11	0.1	-4	Arbovirus inh repeat=5
CC(C)CCNC(=O)CNC(=O)c1cccs1	2	-3%	2	0.6	-29
CCOC(=O)CSc1cc(C)nc(N)n1	-4	-2%	1	-0.3	1
NC(=O)c1ccccc1NCC(=O)c1ccc(Cl)cc1	5	.	.	-0.6	.
COc1cc([N+](=O)[O-])ccc1NC(=O)CCN1C(=O)C2C3CCC(C3)C2C1=O (stereo unspecified)	0	-8%	-2	2.1	-22
COc1ccc(N2CCN(CCNC(=O)CCCn3c(=O)[nH]c4cc(Cl)ccc4c3=O)CC2)cc1	4	-3%	9	-1.3	-22

Fetched one by one from the list above (five):
SMILES	Mtb bLac sens	Mtb growth	Arbovirus inh	RecA intein inh	YopH PTP inh	others
Cc1cc(NS(=O)(=O)c2ccc(NC(=O)CCCC(=O)O)cc2)nc(C)n1	-17	-8%	-4	-1.8	-12	Arbovirus inh repeat=0
CCOC(=O)CSc1cc(C)nc(N)n1	-4	-2%	1	-0.3	1
COc1cc([N+](=O)[O-])ccc1NC(=O)CCN1C(=O)C2C3CCC(C3)C2C1=O (stereo unspecified)	0	-8%	-2	2.1	-22
COc1ccc(C(NC(C)=O)c2ccc3cccnc3c2O)c(OC)c1 (stereo unspecified)	8	-6%	-32	4.1	.
COCCN(C(=O)CNC(=O)c1cccs1)C(C(=O)NC1CCCCC1)c1ccco1 (stereo unspecified)	-2	0%	2	.	-1

Next records.
SMILES	Mtb bLac sens	Mtb growth	Arbovirus inh	RecA intein inh	YopH PTP inh	others
O=c1oc(-c2ccccc2NS(=O)(=O)c2ccc(F)cc2)nc2ccccc12	0	-2%	.	1.9	.
O=C1CCC(Cc2ccccc2)N1 (stereo unspecified)	-3	-2%	13	-2.8	-17
CC1CCCCN1C(=O)c1ccc(C(=O)N2CCCCC2C)cc1 (stereo unspecified)	7	4%	5	-0.5	-35
CCOc1cccc2cc(C(=O)NCc3ccc(F)cc3)c(=N)oc12	11	.	.	-0.5	.
Cc1cccc(NC(=O)c2ccc(CN3CCc4ccccc4C3)cc2)c1C	-1	5%	0	0.1	.
CCCc1cc(C(=O)NCC(C)C)no1	0	3%	2	0.1	-41	Arbovirus inh repeat=0
CC1CCCN(CCSc2ccc(Cl)cc2)C1 (stereo unspecified)	-5	10%	-6	1.1	-11
CC(=O)c1ccc(NS(=O)(=O)c2ccc(C)cc2)cc1	-6	10%	3	-0.4	8
CCc1nnc(SCc2ccc([N+](=O)[O-])cc2)nc1CC	-7	3%	.	1.7	.
COc1ccc(C(=O)C[n+]2ccc(-c3nnc4n3CCC4)cc2)cc1	-3	-2%	-1	3.8	-24
Cc1ccccc1C(C(=O)NC1CCCCC1)N(C(=O)CNC(=O)c1ccco1)c1cccnc1 (stereo unspecified)	-4	2%	-1	0.0	.
COc1cccc(NC(=O)c2cccc(C(=O)Nc3cccc(OC)c3)n2)c1	5	.	.	-1.5	.
COc1ccc(OC)c(S(=O)(=O)N2CCN(C34CC5CC(CC(C5)C3)C4)CC2)c1	-9	-3%	-2	2.2	-32
COc1cccc(/C=N/Nc2ccccc2C(=O)O)c1O	-6	.	.	-5.2	.
CN(CC1COCCO1)c1nc2nonc2nc1N1CCSCC1 (stereo unspecified)	3	-1%	3	-1.5	.
CCOC(=O)c1c(C)[nH]c(/C(C)=N/O)c1C	-1	14%	-6	2.7	-45
COc1ccc(CSc2cccc3cccnc23)cc1[N+](=O)[O-]	7	-1%	13	-11	-18
O=[N+]([O-])c1ccc(Nc2nc(N/N=C\c3ccc4c(c3)OCO4)nc(N3CCCCC3)n2)cc1	97	60%	-13	0.9	0
O=[n+]1c2c(n([O-])c3cc(F)ccc31)CCCC2	-4	.	-16	-4.7	-54
Cn1c(=O)[nH]c(=O)c2[nH]c(N(Cc3ccccc3)Cc3ccccc3)nc21	11	11%	-12	.	-46
Cc1cccc(N2CC(C(=O)Nc3nnc(SCc4cccnc4)s3)CC2=O)c1 (stereo unspecified)	-3	.	.	0.4	.
COc1cccc(-c2noc(C3CCCN(C(=O)c4cccc(F)c4)C3)n2)c1 (stereo unspecified)	-1	.	.	-0.4	.
O=C(Nc1cc([N+](=O)[O-])ccc1Cl)C(Sc1ccccc1)c1ccccc1 (stereo unspecified)	2	-4%	-6	8.0	-18
CCOC(=O)c1c(C)n(C)c2ccc(OC)c(NS(=O)(=O)CC)c12	-1	39%	-12	-2.1	-21
CC(=O)NNc1ccc(C(F)(F)F)cc1[N+](=O)[O-]	4	-2%	-1	0.3	-8
CCOC1CC(C)(C)NC(=S)N1 (stereo unspecified)	8	-5%	1	0.4	-7
OC1CCCN(CC(O)COC(c2ccc(F)cc2)c2ccc(F)cc2)C1 (stereo unspecified)	5	.	.	-0.1	.
NC(=O)C1CCN(CC(=O)Nc2ccc(S(=O)(=O)N3CCOCC3)cc2)CC1	2	.	.	-2.2	.
C=C(C)CN(CC)Cc1c(C(=O)N(C)CCCC)nc2ccccn12	-6	-3%	1	-3.9	.
O=C(Nc1ccccc1N1CCN(C(=O)c2ccc(Cl)cc2)CC1)c1cccc([N+](=O)[O-])c1	4	.	.	5.7	.

The closing 5 entries of the part above lead into the next.
SMILES	Mtb bLac sens	Mtb growth	Arbovirus inh	RecA intein inh	YopH PTP inh	others
CCOC1CC(C)(C)NC(=S)N1 (stereo unspecified)	8	-5%	1	0.4	-7
OC1CCCN(CC(O)COC(c2ccc(F)cc2)c2ccc(F)cc2)C1 (stereo unspecified)	5	.	.	-0.1	.
NC(=O)C1CCN(CC(=O)Nc2ccc(S(=O)(=O)N3CCOCC3)cc2)CC1	2	.	.	-2.2	.
C=C(C)CN(CC)Cc1c(C(=O)N(C)CCCC)nc2ccccn12	-6	-3%	1	-3.9	.
O=C(Nc1ccccc1N1CCN(C(=O)c2ccc(Cl)cc2)CC1)c1cccc([N+](=O)[O-])c1	4	.	.	5.7	.
FC(F)(F)Oc1ccc(NC(=S)NCc2ccccc2)cc1	-4	-4%	15	-0.2	-11
Cc1c(C)c2ccc(OC3CCCCC3=O)cc2oc1=O (stereo unspecified)	-3	.	1	0.2	-20	Arbovirus inh repeat=3
CS(=O)(=O)Nc1ccc(C(=O)NCCSCc2ccco2)cc1	18	0%	10	6.5	-9
COc1ccc(CNC(=O)CCC(=O)n2ncc3cc(C)ccc32)cc1	0	.	.	-0.1	.
C=CCOc1cccc(/C=N/NC(=O)C(OC)c2ccccc2)c1 (stereo unspecified)	3	.	.	0.8	.
Cc1cccc(N2C(=O)CC(N(C(=O)c3ccco3)c3cccc(C)c3)C2=O)c1 (stereo unspecified)	-2	-4%	4	0.1	-24
O=C1NCCCC2c3c(cc(Br)c(O)c3Br)OC12N1CCCCC1 (stereo unspecified)	9	5%	4	38*	-15
CCN(CC)S(=O)(=O)c1ccc2[nH]c(=O)[nH]c2c1	7	-1%	-10	-2.0	-14
Cc1noc(C)c1S(=O)(=O)N1CCCC(C(=O)Nc2ccc(Cl)cn2)C1 (stereo unspecified)	-10	-10%	1	-1.9	-43
CCOC(=O)CNC(=O)C(CC(N)=O)NC(=O)OC(C)(C)C (stereo unspecified)	-6	-12%	.	-1.2	.
CC(Sc1nnc(-c2cccs2)n1-c1ccccc1)C(=O)NCc1ccc2c(c1)OCO2 (stereo unspecified)	-11	6%	-8	-1.8	-17
Cc1ccc(NC(=O)CSCC(=O)N2CCCc3ccccc32)cc1	1	.	.	2.9	.
COc1ccccc1N(Cc1ccccc1)S(=O)(=O)c1cccc(C(=O)Nc2cc(C)ccn2)c1	-19	.	.	1.9	.
Cc1ccc(N2C(=O)C(Cl)=C(N3CCCCCC3)C2=O)cc1	6	.	.	8.9	.
C[C@H](NC(=O)[C@H](Cc1ccccc1)n1c(=O)[nH]c2ccccc2c1=O)C(=O)N1CCC[C@H]1C(=O)O	2	.	.	-1.0	.
Cc1cc2cc(CNC(=O)Nc3cccc(Cl)c3)ccc2n1C	3	6%	2	-0.2	10
C=CCNC(=S)N(Cc1ccccc1)Cc1ccc(F)cc1	3	0%	0	6.1	.
CC1(C)CC(NC(=O)C(F)(F)F)CC(C)(C)N1OC(=O)c1ccco1	-6	-6%	-4	-2.6	-13
CCOc1ccccc1N1CC(C(=O)Nc2ccc(C(=O)O)cc2)CC1=O (stereo unspecified)	0	-6%	12	-5.7	-34
CCCCC(=O)Nc1nnc(CCc2ccccc2)s1	3	.	.	-0.6	.
COC(=O)C1=C(c2cccc(OC)c2OC)C[C@@H]2CC[C@H]1N2C(=O)N1CCCC1	-11	-3%	.	-0.6	.
Oc1c(Br)cc(Br)cc1/C=N/c1nc2c(s1)CCCC2	9	-3%	-9	1.0	-29
Cc1ccccc1-n1c(=O)n(Cc2ccccc2)c(=O)c2[nH]cnc21	0	12%	.	1.7	.
CC(C)c1cc(C(=O)N2CCCC(CCC(=O)NCc3ccccc3F)C2)n(C)n1 (stereo unspecified)	4	-1%	6	-0.5	.
CCn1c(CSc2ncn[nH]2)nc2cc(C(=O)O)ccc21	0	-2%	.	-0.9	.
Cc1ccc(CS(=O)Cc2ccc(C(=O)NCc3ccccc3)o2)cc1 (stereo unspecified)	-3	.	.	0.1	.
O=C(Nc1cccc(O)c1)c1cc(-c2ccco2)on1	1	-7%	-10	-0.6	6
O=C(CSc1nnc(Cc2ccsc2)o1)c1ccccc1	-13	3%	.	0.5	.
O=S(=O)(N1CCCCC1)n1c(Cc2ccccc2)nc2ccccc21	2	0%	-3	2.1	-26
COc1ccc(NC(C)=O)cc1NC(C)C(=O)Nc1cccc2ccccc12 (stereo unspecified)	-4	-4%	2	.	2

Screens from PubChem BioAssay.
